VACV mCherry inh: qHTS for Stage-Specific Inhibitors of Vaccinia Orthopoxvirus: mCherry Reporter Primary qHTS. Vaccinia virus mCherry reporter infection, fluorescence; about a quarter of the inactives have no number. Potency, µM (titrated, usually from 36.5 µM), without a hit: top-dose activity change, negative = inhibition, most hits filed as inhibitors. actives 0.63% (n = 310,000); active = well fitted inhibition curve with a large enough effect; inconclusive = small, poorly fitted or top-dose-only effect; inactive = no such curve, though single readings can be large or run the other way; tested in A549 cells; note: nearly all actives have a fitted effect of over 35% in size; inactives centre near -10
Vaccinia Venus: qHTS for Stage-Specific Inhibitors of Vaccinia Orthopoxvirus: Venus Reporter Primary qHTS; actives 0.46% (n = 330,000); Potency, µM (highest dose often 36.5 µM), for inactives: at the highest dose activity change, negative = inhibition, usual class: inhibitors; Vaccinia virus Venus reporter expression, fluorescence; active means well fitted inhibition curve with a large enough effect; inconclusive means small, poorly fitted or top-dose-only effect; inactive means no such curve, though single readings can be large or run the other way; tested in A549 cells; note: nearly all actives have a fitted effect of over 30% in size; inactives centre near -10
Starred values were filed as active, the others as inactive; i = inactive; ? = inconclusive; . = no result given; [ ] = dose if it differs, or a comment. % is set by controls: 0 for no effect and ±100 for the full control effect; potency is the fitted concentration of half-maximal effect.

[1] COC(=O)C1=C(c2ccc(OC(F)(F)F)cc2)C[C@@H]2CC[C@H]1N2C(=O)N1CCCC1
[2] CCOc1ccc(C2/C(=C(/O)c3ccc(F)cc3)C(=O)C(=O)N2CCCN(C)C)cc1 (stereo not given)
[3] CCCOc1ccc(F)cc1-c1cc(C(=O)Nc2ccc(OC)cc2OC)[nH]n1
[4] COCC(=O)Nc1cc(C(=O)N2CCN(c3ccc(Cl)cn3)CC2)c2c(c1)nc(C1CCC1)n2C
[5] Cc1cc(F)ccc1S(=O)(=O)N1CCCOC1CNC(=O)C(=O)NCCc1ccco1 (stereo not given)
[6] CC(Sc1ccc(S(=O)(=O)N2CCOCC2)cc1[N+](=O)[O-])C(=O)O (stereo not given)
[7] O=C(Cc1ccccc1)N/N=C/c1ccccn1
[8] COC(=O)CN1C(c2cccc(Cl)c2)=Nc2ccc(Cl)cc2C1c1ccccc1 (stereo not given)
Screen / compound no.	1	2	3	4	5	6	7	8
VACV mCherry inh	-14%	.	26%	-1%	i	-14%	-3%	-2%
Vaccinia Venus	?	-10%	-16%	5%	-18%	-14%	-18%	0%

[9] OC[C@@H]1CN(Cc2cccc(C(F)(F)F)c2)C[C@H](n2cnc3c(NCc4ccc(F)cc4)ncnc32)O1
[10] CC(=O)c1cc2c(cc1NC(=O)c1c(C)nn(-c3ccc(C)cc3)c1-n1cccc1)OCO2
[11] CC1(Cc2ccc(C(F)(F)F)o2)C(=O)Nc2ccc(-c3cccc(C(F)(F)F)c3)cc21 (stereo not given)
[12] CC(c1ccc(C(C)(C)C)cc1)S(=O)CC(O)CO (stereo not given)
[13] O=C(CCl)Nc1ccc(S(=O)(=O)Nc2nccs2)cc1
[14] COC(=O)CCc1c(C)nn(-c2ccccc2)c1C
[15] COC(=O)[C@@]12C[C@@H](CC(=O)N3CCSCC3)C(=O)N(Cc3ccccc3)C1=CCC(C)(C)C2
[16] O=C(NCCc1ccc(Cl)cc1)c1cc(S(=O)(=O)N2CCCCC2)c[nH]1
Screen / compound no.	9	10	11	12	13	14	15	16
VACV mCherry inh	-17%	-11%	?	-19%	-1%	-19%	i	?
Vaccinia Venus	-21%	-7%	?	-7%	9%	-20%	0%	-29%

[17] C=CCn1c(N(C)C)nc2c1c(=O)[nH]c(=O)n2C
[18] O=C(CSc1nnc(-c2ccncc2)o1)Nc1cc(Cl)ccc1C(=O)O
[19] Cc1ccc(S(=O)(=O)CCC(=O)OCC(=O)Nc2sccc2C#N)cc1
[20] CCOC(=O)[C@@H]1[C@H]2COc3cc(OC)ccc3[C@H]2N2C(=O)N(c3ccc(C(F)(F)F)cc3)C(=O)[C@]12C
[21] COc1ccccc1NC(=O)c1oc2ccccc2c1NC(=O)COc1cccc(C)c1
[22] CCN1C(=O)[C@H]2[C@@H](c3ccc(-c4cccc(Cl)c4)c(OC)c3)N[C@@](C)(C(=O)OC)[C@H]2C1=O
[23] c1cc2c3c(cccc3c1)NC1(CCCCC1)N2
[24] CCN1CCN(C2CCCCC2NS(=O)(=O)c2ccccc2)CC1 (stereo not given)
Screen / compound no.	17	18	19	20	21	22	23	24
VACV mCherry inh	i	i	i	i	?	-16%	-13%	-3%
Vaccinia Venus	-10%	2%	-4%	?	?	-34%	1%	-8%

[25] COc1ccccc1-n1c(COc2ccccc2-c2ccccc2)nnc1SCC(=O)c1c(N)n(C)c(=O)n(C)c1=O
[26] O=C(Nc1ccc(Cl)cc1)NC1CCCC1Cc1ccco1 (stereo not given)
[27] CN(C)Cc1c(O)ccc2c(=O)c(-c3ccc(Cl)cc3)coc12
[28] O=C(Cn1c(=O)oc2ccccc21)Nc1nnc(N2CCCCCC2)s1
[29] CN(C(=O)C1CCCO1)c1nnc(-c2cnccn2)s1 (stereo not given)
[30] Cc1cc(CNC(=O)[C@H]2C[C@@H]2[C@H](NP(=O)(c2ccccc2)c2ccccc2)c2ccccc2)nn1C
[31] CCOC(=O)Nc1ccc(S(=O)(=O)Nc2nc(C)cc(C)n2)cc1
[32] Cc1ccc(NC(=O)Cn2c(=O)n(CCCC(=O)NCc3ccc4c(c3)OCO4)c(=O)c3ccccc32)cc1
Screen / compound no.	25	26	27	28	29	30	31	32
VACV mCherry inh	-5%	-7%	-3%	-20%	i	i	-10%	-8%
Vaccinia Venus	-17%	-17%	-6%	-10%	-12%	-3%	3%	-5%

[33] Cc1cccc(CN2[C@H](CO)C=CS2(=O)=O)c1
[34] O=c1c2[nH]c3ccc(F)cc3c2ncn1C1CCCCC1
[35] Cc1ccc(-c2nn(-c3ccc(F)cc3)cc2C(=O)NCCCN2CCCC2=O)cc1
[36] COc1ccc(CN2C(=O)CCC2(C)c2nnnn2Cc2ccccc2)cc1 (stereo not given)
[37] COCCCNC(=O)c1cc(=O)n(Cc2ccc(Cl)cc2)c2ccccc12
[38] Cc1ccc(NS(=O)(=O)c2ccc3c(c2)CC(=O)N3)cc1Cl
[39] CCN(CC(=O)Nc1c(F)cccc1F)C(=O)c1ccc(Sc2nncn2C)c([N+](=O)[O-])c1
[40] C/C(=N\NC(=O)c1cccnc1)c1ccc(-c2ccccc2)cc1
Screen / compound no.	33	34	35	36	37	38	39	40
VACV mCherry inh	33%[activator]	.	-15%	-9%	-8%	-22%	-14%	i
Vaccinia Venus	-12%	-3%	?	-12%	-5%	-26%	-7%	-10%

In a second layout: 12 of the compounds above
Values run as follows: VACV mCherry inh | Vaccinia Venus
26. O=C(Nc1ccc(Cl)cc1)NC1CCCC1Cc1ccco1 (stereo not given)
 : -7% | -17%
27. CN(C)Cc1c(O)ccc2c(=O)c(-c3ccc(Cl)cc3)coc12
 : -3% | -6%
28. O=C(Cn1c(=O)oc2ccccc21)Nc1nnc(N2CCCCCC2)s1
 : -20% | -10%
29. CN(C(=O)C1CCCO1)c1nnc(-c2cnccn2)s1 (stereo not given)
 : i | -12%
30. Cc1cc(CNC(=O)[C@H]2C[C@@H]2[C@H](NP(=O)(c2ccccc2)c2ccccc2)c2ccccc2)nn1C
 : i | -3%
31. CCOC(=O)Nc1ccc(S(=O)(=O)Nc2nc(C)cc(C)n2)cc1
 : -10% | 3%
32. Cc1ccc(NC(=O)Cn2c(=O)n(CCCC(=O)NCc3ccc4c(c3)OCO4)c(=O)c3ccccc32)cc1
 : -8% | -5%
33. Cc1cccc(CN2[C@H](CO)C=CS2(=O)=O)c1
 : 33%[activator] | -12%
34. O=c1c2[nH]c3ccc(F)cc3c2ncn1C1CCCCC1
 : . | -3%
35. Cc1ccc(-c2nn(-c3ccc(F)cc3)cc2C(=O)NCCCN2CCCC2=O)cc1
 : -15% | ?
36. COc1ccc(CN2C(=O)CCC2(C)c2nnnn2Cc2ccccc2)cc1 (stereo not given)
 : -9% | -12%
37. COCCCNC(=O)c1cc(=O)n(Cc2ccc(Cl)cc2)c2ccccc12
 : -8% | -5%

(continued)
[41] O=C(NCCSc1c[nH]c2ccccc12)c1c(F)cccc1F
[42] CCN(CC)S(=O)(=O)c1ccc(N2CCOCC2)c(NC(=O)c2ccc(N3CCCC3=O)cc2)c1
[43] COc1ccc(NC(=O)C(=O)NCCc2ccccc2)cc1OC
[44] CC1(C)C/C(=C(/C#N)C(N)=O)CCO1
[45] CCOc1ccc(C(=O)OC(C)CN2CCCCC2)cc1 (stereo not given)
[46] COc1ccc(NC(=O)Cc2nnc(SCC(=O)Nc3cc(C)ccc3OC)n2C)cc1
[47] CCOC(=O)c1c2ccc(OCC(=O)N/N=C/c3ccc(C)cc3)cc2n2ccccc12
[48] NC(=O)c1ccc(C(F)(F)F)n(Cc2cccc(Cl)c2)c1=O
Screen / compound no.	41	42	43	44	45	46	47	48
VACV mCherry inh	-21%	-12%	-14%	-8%[1.46 µM]	-1%	.	.	i
Vaccinia Venus	-11%	-18%	?	-13%	-2%	-27%	-4%	-14%

[49] O=C(Nc1ccc(Cl)c(S(=O)(=O)Nc2ccccc2Cl)c1)c1cccs1
[50] CCN1CCN(c2c(Cl)cccc2NC(=O)c2ccco2)CC1
[51] COc1cccc(/C=N/n2c(SC)nnc2-c2ccccc2)c1OC
[52] CCn1c(=S)sc2c(=O)n(CC(=O)Nc3ccc(OC)c(Cl)c3)c(C)nc21
[53] C[C@@H]1CN([C@H](C)CO)C(=O)CCCn2cc(nn2)CO[C@H]1CN(C)S(=O)(=O)c1cccs1
[54] Cc1nc(-c2cccc3ccccc23)ccc1C(=O)O
[55] Cc1ccc(S(=O)(=O)N2CCOCC2)cc1C(=O)Nc1cccc(S(=O)(=O)N2CCCC2)c1
[56] CCN(CC)S(=O)(=O)c1ccc(N2CCCCC2)c(NC(=O)/C=C/c2cc(OC)c(OC)c(OC)c2)c1
Screen / compound no.	49	50	51	52	53	54	55	56
VACV mCherry inh	-16%	.	-12%[1.46 µM]	-2%	18%	i	-16%	-19%
Vaccinia Venus	-14%	-7%	-22%	-10%	-5%	-6%	-9%	-11%

[57] Cc1ccc(C(=O)c2ccccc2C(=O)OCC(=O)NCC2CCCO2)cc1 (stereo not given)
[58] Cc1cccn2c(=O)c3c(nc12)N1CCCCC1C1(C3)C(=O)N(C)C(=O)N(C)C1=O (stereo not given)
[59] O=C1C=C(c2cccc(O)c2)CCC1
[60] CCCc1ccc(C2C3=C(CC(C)(C)CC3=O)NC3=C2C(=O)c2ccccc23)cc1 (stereo not given)
[61] COC(=O)[C@@H]1CCCN1Cc1ccc2c(c1)CN(Cc1cccc(Cl)c1)CCO2
[62] CCOC(=O)Cn1c(=N)n(Cc2ccccc2F)c2ccccc21
[63] CC(=NNC(=S)Nc1ccc(C)cc1)c1ccccn1
[64] Cc1cccc(-n2c(O)c(C=NC3CCS(=O)(=O)C3)c3ccccc3c2=O)c1C (stereo not given)
Screen / compound no.	57	58	59	60	61	62	63	64
VACV mCherry inh	-6%	i	-11%	-26%	-10%	-16%	?	i[7.34 µM]
Vaccinia Venus	-9%	16%	-9%	?	-3%	-6%	?	-5%[7.34 µM]

[65] O=C(O)c1ccc(Cn2nnc3sc4c(c3c2=O)CCCC4)cc1
[66] O=C(Cn1cnc2ccccc21)N/N=C/C(Br)=C/c1ccccc1
[67] COc1ccc(/C=C/C(=O)Nc2cc(F)ccc2C)cc1S(=O)(=O)N1CCOCC1
[68] COc1ccc(-c2nnc(SCC(=O)c3ccc(NC(C)=O)cc3)o2)cc1OC
[69] O=C(c1ccc2c(c1)N(Cc1ccccc1)C(=O)c1ccccc1S2)N1CCCC1
[70] O=C1CC(N2CCN(c3nc4ccccc4s3)CC2)C(=O)N1Cc1cccs1 (stereo not given)
[71] CCc1ccc2c(c1)C1(NN=C(c3ccc(C)cc3)S1)C(=O)N2 (stereo not given)
[72] CCOC(=O)c1ccccc1NC(=O)c1cccc2c1C(=O)N(C1CCN(C(=O)OCC)CC1)C2
Screen / compound no.	65	66	67	68	69	70	71	72
VACV mCherry inh	-6%	?	i	i	9%	.	?	-14%
Vaccinia Venus	1%	?	-29%	-7%	-18%	?	?	-20%

[73] CC(=O)NCCC(=O)Nc1nc(-c2ccccc2Cl)cs1
[74] C[C@H]1CN([C@@H](C)CO)C(=O)c2cccc(NC(=O)c3ccc(-c4nccs4)cc3)c2O[C@@H]1CN(C)C(=O)NC1CCCCC1
[75] CCC1CCCCN1CCCNC(=O)CCC(=O)N1CC(C)Oc2ccccc21 (stereo not given)
[76] Cc1cc(C)c(NC(=O)CN2C(=O)CCSc3ccc(S(=O)(=O)N4CCCC4)cc32)c(C)c1
[77] Cc1noc(C)c1COc1ccc(C(=O)NCC(c2c(F)cccc2Cl)N(C)C)cc1 (stereo not given)
[78] COc1ccc(-n2nnnc2C2CCN(S(=O)(=O)c3cccc(C(F)(F)F)c3)CC2)cc1
[79] O=S(=O)(Nn1cnnc1)c1ccc(F)cc1
[80] O=C(CSc1nnc(CNC(=O)c2ccccc2)o1)Nc1nccs1
Screen / compound no.	73	74	75	76	77	78	79	80
VACV mCherry inh	i	-9%	i	-8%[7.34 µM]	-18%	-19%	-21%	-8%
Vaccinia Venus	-5%	-18%	-9%	-10%[7.34 µM]	-6%	-16%	-18%	-14%

[81] O=C(Cn1cc(S(=O)(=O)Cc2ccccc2Cl)c2ccccc21)NCCc1ccccc1
[82] COc1ccc(NC2CCCN(C(=O)c3csc(C)n3)C2)cc1 (stereo not given)
[83] CSc1ncccc1C(=O)NCC(=O)Nc1ccc(F)c(F)c1
[84] COc1ccc(NC(C)=O)cc1C#N
[85] NC(=NCCc1ccccc1)NS(=O)(=O)c1ccc(F)cc1
[86] CCc1nn2c(=O)c(S(=O)(=O)Nc3ccc(C)c(C)c3)c(C)nc2s1
[87] Cc1nn(-c2ccccc2)nc1C(=O)Nc1nnc(C(F)(F)F)s1
[88] Cc1cc(N2CCOCC2)nc(SCC(=O)c2ccc(Cl)cc2)n1
Screen / compound no.	81	82	83	84	85	86	87	88
VACV mCherry inh	-13%	i	-13%	i	-19%	-29%	i	.
Vaccinia Venus	-6%	-15%	-12%	-2%	-11%	-24%	-1%	?
